Screening data (PubChem)
2A StopGo – FMDV 2A StopGo reporter, luciferase signal; human cells with a luciferase reporter of 2A StopGo recoding; control for the full effect not named in the record; Potency, µM (series often up to 57.9 µM), inactives show at the top dose signal change, negative = less light; actives 1.2% (n = 410,000); AID 1159524; active = well fitted falling curve with a large enough effect; inconclusive = small, poorly fitted or top-dose-only effect; inactive = no such curve, though single readings can be large or run the other way; tested in HEK293T cells; note: % is set by controls: 0 for no effect and ±100 for the full control effect; nearly all actives have a fitted effect of over 45% in size; luciferase light after 4 h
LASV entry inh – Lassa virus entry inhibition; Lassa virus pseudotype entry inhibition, cell reporter; control for the full effect not named in the record; Potency, µM (doses to about 37.9 µM), inactives show at the highest dose activity change, negative = inhibition, actives largely listed as inhibitors; actives 1.2% (n = 300,000); active means well fitted inhibition curve with a large enough effect; inconclusive means small, poorly fitted or top-dose-only effect, or effect the other way; inactive means flat fitted curve, though single readings scatter; tested in HEK293 cells; note: % is set by controls: 0 for no effect and ±100 for the full control effect; nearly all actives have a fitted effect of over 50% in size; luciferase read-out
RE007 growth inh – less growth of the S. pombe RE007 Vpr strain; S. pombe RE007 Vpr strain, BacTiter-Glo ATP luminescence, 24 h; control for the full effect not named in the record; AID 651644; actives 0.21% (n = 360,000); Potency, µM (titrated, usually from 92.2 µM), for inactives: at the highest dose activity change, negative = less growth; active = well fitted falling curve with a large enough effect; inconclusive = small, poorly fitted or top-dose-only effect; inactive = no such curve, though single readings can be large or run the other way;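 note: % is set by controls: 0 for no effect and ±100 for the full control effect; nearly all actives have a fitted effect of over 50% in size; the assay follows cell death caused by Vpr and the record does not say whether a fall means rescue or toxicity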
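Fission yeast RE007 carrying one integrated HIV-1 vpr copy, seeded at OD 0.01 in PMG+AL medium with 23 nL pinned compound. Grown 24 h at 30 degrees; viability read by BacTiter-Glo luminescence after 5 min.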
Marburg entry inh – Marburg virus entry inhibition; actives 1.8% (n = 300,000); Potency, µM (top dose mostly 37.8 µM), for inactives: at the highest dose activity change, negative = inhibition, actives largely listed as inhibitors; Marburg virus pseudotyped entry inhibition, cell reporter; control for the full effect not named in the record; about a third of the inactives were read at about 46 µM; active = well fitted inhibition curve with a large enough effect; inconclusive = small, poorly fitted or top-dose-only effect, or effect the other way; inactive = flat fitted curve, though single readings scatter; tested in HEK293 cells; about a fifth of its hits are not listed in these tables; note: % is set by controls: 0 for no effect and ±100 for the full control effect; luciferase read-out
NS1 inh – blocks influenza NS1 protein function; S. cerevisiae slowed by influenza A NS1, growth recovery by OD600; Potency, µM (series often up to 46.1 µM), inactives show at the highest dose activity, positive = more growth; actives 0.4% (n = 270,000); AID 2326; note: actives are rising curves; nearly all actives have a fitted effect of over 50% in size
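A cell-based growth assay was used: compounds that relieve NS1-induced slow growth of budding yeast raise OD600. Assay medium was yeast nitrogen base with ammonium sulphate and -URA supplement, pH 6.0, with 2% galactose.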
Cruzain inh Det – inhibitors of Trypanosoma cruzi cruzain with detergent | P25779 | purified cruzain, Z-FR-AMC fluorescence, 0.01% Triton | Potency, µM, for the others: max response, negative = inhibition, hits mostly inhibitors | actives 0.43% (n = 200,000); active = well fitted curve in the direction sought with a large enough effect; inconclusive = small, poorly fitted or top-dose-only effect, or another doubt; inactive = no such curve, though single readings can be large; an effect the other way counts as inactive or inconclusive;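 note: plate controls were neutral wells for no effect and buffer without enzyme for full effect; nearly all actives have a fitted effect of over 40% in size; top concentration of the series not given in the record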
Target sequence (P25779 123-467 limits assumed): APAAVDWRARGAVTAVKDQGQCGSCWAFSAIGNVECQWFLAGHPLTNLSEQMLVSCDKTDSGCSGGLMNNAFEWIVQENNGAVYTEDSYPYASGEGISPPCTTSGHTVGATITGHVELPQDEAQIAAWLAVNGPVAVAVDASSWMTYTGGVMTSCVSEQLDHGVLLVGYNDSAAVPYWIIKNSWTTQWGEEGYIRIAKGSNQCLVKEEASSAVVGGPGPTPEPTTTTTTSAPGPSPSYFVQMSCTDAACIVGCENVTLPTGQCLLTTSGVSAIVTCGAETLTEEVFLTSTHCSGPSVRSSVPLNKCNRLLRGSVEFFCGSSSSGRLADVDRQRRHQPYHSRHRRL
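Detergent-containing run (0.01% Triton X-100) in acetate buffer pH 5.5 with 5 mM DTT: enzyme at 1.5 nM final, 15 min compound preincubation at room temperature, then 2 uM Z-FR-AMC substrate. Activity taken as 60 s fluorescence increase at 360/450 nm.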
Cruzain inh noDet – inhibitors of Trypanosoma cruzi cruzain without detergent | Potency, µM, inactives show max response, negative = inhibition, hits mostly inhibitors | P25779 | purified cruzain, Z-FR-AMC fluorescence, no detergent | actives 2.3% (n = 200,000); active = well fitted curve in the direction sought with a large enough effect; inconclusive = small, poorly fitted or top-dose-only effect, or another doubt; inactive = no such curve, though single readings can be large; an effect the other way counts as inactive or inconclusive;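 note: plate controls were enzyme without inhibitor for no effect and buffer without enzyme for full effect; nearly all actives have a fitted effect of over 40% in size; top concentration of the series not given in the record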
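Detergent-free condition (0.00005% Triton X-100) in acetate buffer pH 5.5 with DTT. 1.5 nM enzyme and compound were pre-mixed 15 min, then 2 uM Z-FR-AMC substrate added; reaction progress from fluorescence change between first and third reads (60 s).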
SARS PLP yeast – SARS-CoV PLP inhibition in yeast | AID 485353 | Potency, µM (series often up to 32.9 µM), without a hit: at the highest dose activity, positive = growth rescue | actives 0.19% (n = 330,000) | S. cerevisiae expressing SARS-CoV PLpro, growth rescue; control for the full effect not named in the record; note: 0% is about no effect; nearly all actives have a fitted effect of over 55% in size; growth read by luminescence after 48 h
Numbers without * were called inactive; ? = inconclusive; / = not tested or not shown; [ ] = another dose, or the depositor's remark. Unless noted, calls come from the whole dose curve; as a rule, active means well fitted rising curve with a large enough effect; inconclusive means small, poorly fitted or top-dose-only effect; inactive means no such curve, though single readings can be large or run the other way. Potency is the fitted concentration of half-maximal effect.

mol,2A StopGo,LASV entry inh,RE007 growth inh,Marburg entry inh,NS1 inh,Cruzain inh Det,Cruzain inh noDet,SARS PLP yeast
CC12CCC(=O)N1C(C(=O)NNC(=O)COc1ccccc1F)CS2 (stereo not given),-20%,5%,0%,9%,/,/,/,-5%
O=C(CNCC1CCCO1)Nc1ccccc1N1CCCCCC1 (stereo not given),-22%,4%,6%,?,-7%,-2.0%,0%,-1%
COc1ccc(CN(C)C(=O)CNC(=O)Cc2cccc3ccccc23)c(OC)c1OC,-10%,-29%[46.1 µM],-4%,5%[46.1 µM],11%,/,/,3%
COc1cccc(NC(=O)C2C(c3ccccc3)C2(Cl)Cl)c1 (stereo not given),-22%,/,33%,/,-110%,/,/,-22%
CCCc1ccc(OCC(=O)Nc2cc(S(=O)(=O)CC)ccc2O)cc1,-10%,1%[46.1 µM],16%,?,-1%,/,/,0%
N#C/C(=C(/O)COC(=O)CCCNC(=O)c1ccc(Cl)cc1)c1nc2ccccc2[nH]1,?,?,0%,?,4%,0.1%,-18%,1%
COc1ccc(Cn2nnnc2CN2CCOCC2)cc1,/,6%,-2%,1%,-2%,1.7%,-2%,-12%
CCc1nnc(N/N=C/c2c(C)[nH]c3ccccc23)n1N,12%,/,-1%,-26%[46.1 µM],-12%,/,/,-5%
O=C1NC2=C(C(=O)CCC2)C(c2ccccc2Cl)N1 (stereo not given),-16%,-5%[46.1 µM],-10%,3%[46.1 µM],12%,/,/,1%
c1ccc2c(NCC3CCCO3)nc(N3CCCCC3)nc2c1 (stereo not given),-24%,/,-2%,/,-3%,/,/,0%
Cc1[nH]c2ccc(C(=O)N3CCN(c4ccccc4Cl)CC3)cc2c1C,-6%,/,1%,/,-21%,/,/,-10%
C=C(C)C1CC=C(C)/C(=N/NC(=O)c2cccc([N+](=O)[O-])c2)C1 (stereo not given),?,7%,-4%,8%,13%,-5.2%,11%,-8%
Cc1cccc(N2C(=O)c3cccc4cccc(c34)C2=O)c1,-19%,/,37%,/,-39%,/,/,-2%
Cc1ncc([N+](=O)[O-])n1CCOC(=O)Nc1ccc([N+](=O)[O-])cc1,-6%,-11%,8%,?,2%,-4.6%,-18%,-11%
CSc1ccccc1OCc1cc(C(=O)NCCC2=CCCCC2)no1,17%,16%,-19%,?,3%,/,/,-7%
Cc1cc(OCc2cc(C(=O)O)oc2C)c2c3c(c(=O)oc2c1)CCCC3,-26%,-4%,1%,1%,?,-15%,12%,-13%
COc1ccc(C2CC(O)(c3ccccc3)Oc3cc(OC)ccc32)cc1 (stereo not given),6%,/,-1%,/,-34%,/,/,-4%
CCCCc1nc2cc(C(=O)N(C)C(C)c3ccccn3)ccc2o1 (stereo not given),70%[activator],/,3%,/,-5%,/,/,1%
O=C(Nc1cccc(NC(=O)c2ccc(Cl)cc2)n1)c1ccc(Cl)cc1,5%,-8%,-5%,4%,2%,/,/,-3%
CCCN(CC(=O)Nc1ccccc1C)C(=O)C1CCN(C(=O)Nc2ccccc2)CC1,-9%,4%,-1%,-5%,/,/,/,0%
CCOc1ccccc1NC(=O)CCN(c1ccc(C)cc1)S(=O)(=O)c1ccccc1,3%,?,-18%,14µM*,9%,-1.8%,7%,22%
Cc1ccc(OCC(=O)Nc2cccc(S(=O)(=O)N3CCCCCC3)c2)cc1C,?,-7%,-13%,1%,/,/,/,-4%
COc1ccc(OC)c(N/C=C2/CCCCC2=O)c1,1%,16%,-3%,3%,-32%,-4.9%,-2%,1%
Cc1ccc(C(=O)Nc2ccncc2)cc1[N+](=O)[O-],-19%,/,-1%,/,-36%,/,/,-4%
Cc1nnc(SCCn2c(N(C)Cc3ccccc3)nc3c2c(=O)n(C)c(=O)n3C)s1,-24%,-9%,10%,-11%,-32%,/,/,/
Cc1ccc2c(COC(=O)c3ccccc3Cl)cc(=O)oc2c1,13%,-4%[46.1 µM],1%,?,-7%,/,/,-11%
CCOP(=O)(OCC)C(NC(=O)c1ccc(OC)c(OC)c1)c1ccccc1 (stereo not given),-7%,-2%[46.1 µM],11%,0%[46.1 µM],/,/,/,3%
CCOC(=O)c1cc(-c2ccc(OC(F)F)cc2)nc2c1c(=O)[nH]c(=O)n2C,-9%,7%,0%,-8%,6%,-0.7%,?,12%
COC(=O)Cn1c(=O)c(C(=O)CCl)c(N)n(Cc2ccccc2)c1=O,?,/,23%,/,-7%,/,/,1%
COc1ccc(C(=O)C2CCCN(C(=O)c3cccc(Cl)c3F)C2)cc1OC (stereo not given),-15%,/,7%,/,-6%,/,/,-2%
O=C1c2ccccc2C(=O)N1OCCCN1C(=O)c2ccccc2S1(=O)=O,18%,8%[46.1 µM],-5%,16%,/,/,/,/
O=C(NNC(=O)c1ccccc1F)c1ccc2[nH]c(=O)c(=O)[nH]c2c1,56%[activator],/,-3%,/,-5%,/,/,-4%
O=c1c2ccc(Cl)cc2[nH]c(=S)n1-c1cccnc1,64%[activator],?,-4%,-2%,/,/,/,0%
Cc1oc2c(CN3CCCCC3)c(O)ccc2c(=O)c1-c1ccc(Cl)cc1,-12%,3%[46.1 µM],-5%,1%[46.1 µM],3%,/,/,2%
CN(c1ncnc(N)c1[N+](=O)[O-])C1CCCCC1,-14%,/,-29%,/,-26%,/,/,0%
O=C(Nc1ccccc1)C1=C(O)CC(c2ccco2)CC1=Nc1ccccc1 (stereo not given),-5%,20%,16%,11%,-4%,0.2%,-19%,0%
Cc1ccc(S(=O)(=O)N2CCN(C(=O)N(C)C)CC2)cc1C,-22%,0%,-3%,-3%,-4%,6.9%,5%,0%
Cc1cccc(C(=O)NC2CCN(CC(=O)Nc3ccccc3Cl)CC2)c1,-19%,?,3%,?,-2%,/,/,1%
COc1nc(-c2cccc([N+](=O)[O-])c2)nc2ccccc12,0%,5%,-18%,14%,-4%,/,/,0%
Cc1cc2oc(C(=O)N(Cc3ccc(Cl)cc3)Cc3ccco3)c(C)c2cc1Cl,-26%,-7%[46.1 µM],/,?,/,-1.9%,?,/

Entries shown so far that have fluorine:
mol,2A StopGo,LASV entry inh,RE007 growth inh,Marburg entry inh,NS1 inh,Cruzain inh Det,Cruzain inh noDet,SARS PLP yeast
CC12CCC(=O)N1C(C(=O)NNC(=O)COc1ccccc1F)CS2 (stereo not given),-20%,5%,0%,9%,/,/,/,-5%
CCOC(=O)c1cc(-c2ccc(OC(F)F)cc2)nc2c1c(=O)[nH]c(=O)n2C,-9%,7%,0%,-8%,6%,-0.7%,?,12%
COc1ccc(C(=O)C2CCCN(C(=O)c3cccc(Cl)c3F)C2)cc1OC (stereo not given),-15%,/,7%,/,-6%,/,/,-2%
O=C(NNC(=O)c1ccccc1F)c1ccc2[nH]c(=O)c(=O)[nH]c2c1,56%[activator],/,-3%,/,-5%,/,/,-4%

Shown as labelled records: entries from further up
> CCOC(=O)c1cc(-c2ccc(OC(F)F)cc2)nc2c1c(=O)[nH]c(=O)n2C
  2A StopGo: -9% | LASV entry inh: 7% | RE007 growth inh: 0% | Marburg entry inh: -8% | NS1 inh: 6% | Cruzain inh Det: -0.7% | Cruzain inh noDet: ? | SARS PLP yeast: 12%
> COC(=O)Cn1c(=O)c(C(=O)CCl)c(N)n(Cc2ccccc2)c1=O
  2A StopGo: ? | LASV entry inh: / | RE007 growth inh: 23% | Marburg entry inh: / | NS1 inh: -7% | Cruzain inh Det: / | Cruzain inh noDet: / | SARS PLP yeast: 1%
> Cc1oc2c(CN3CCCCC3)c(O)ccc2c(=O)c1-c1ccc(Cl)cc1
  2A StopGo: -12% | LASV entry inh: 3%[46.1 µM] | RE007 growth inh: -5% | Marburg entry inh: 1%[46.1 µM] | NS1 inh: 3% | Cruzain inh Det: / | Cruzain inh noDet: / | SARS PLP yeast: 2%
> O=c1c2ccc(Cl)cc2[nH]c(=S)n1-c1cccnc1
  2A StopGo: 64%[activator] | LASV entry inh: ? | RE007 growth inh: -4% | Marburg entry inh: -2% | NS1 inh: / | Cruzain inh Det: / | Cruzain inh noDet: / | SARS PLP yeast: 0%

Later entries:
mol,2A StopGo,LASV entry inh,RE007 growth inh,Marburg entry inh,NS1 inh,Cruzain inh Det,Cruzain inh noDet,SARS PLP yeast
Cc1ccc(NC(=O)CSc2nnc(NC(=O)C(C)C)s2)c(C)c1,-6%,17%,-10%,?,-11%,/,/,-6%
O=C(COc1ccccc1Cl)N(Cc1ccco1)C1CCS(=O)(=O)C1 (stereo not given),/,?,-3%,13%,4%,3.1%,2%,1%
O=C(Nc1ccc(Br)cc1)c1cc([N+](=O)[O-])cc([N+](=O)[O-])c1,?,/,3%,?,5%,/,/,4%
COc1ccc(C2CC(=O)c3c(ccc4ccccc34)N2)cc1OC (stereo not given),-24%,-12%,2%,?,-4%,-1.8%,4%,-7%
CCOc1ccc(NC(=O)CSc2nnc(C3CC3)n2N)cc1,13%,-28%,8%,14%,-3%,3.3%,-7%,-5%
COC(=O)c1ccc2nc(C)cc(Nc3ccc(O)cc3)c2c1,-25%,-1%[46.1 µM],/,2%[46.1 µM],/,-6.6%,4%,/
Cn1c2ccccc2c2ncn(CCC3=CCCCC3)c(=O)c21,0%,4%,-26%,?,-56%,-6.1%,-6%,-3%
C=C1c2ccccc2NC(=O)N1c1ccc(OC)cc1,54%[activator],/,-8%,/,2%,/,/,-1%
